Source: PubChem (National Center for Advancing Translational Sciences (NCATS))
gsp ag = qHTS for Agonist of gsp, the Etiologic Mutation Responsible for Fibrous Dysplasia/McCune-Albright Syndrome: qHTS; 340,000 compounds, 0.13% hits; gsp mutant cells, cAMP HTRF, 30 min; control for the full effect not named in the record; Potency, µM (doses to about 76.9 µM), for the others: top-dose activation (cAMP increase), actives largely listed as activators; active = well fitted activation curve with a large enough effect; inconclusive = small, poorly fitted or top-dose-only effect, or another doubt; inactive = no such curve, though single readings can be large or run the other way; cell line not stated here;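 note: phosphodiesterase inhibitor Ro 20-1724 added with compounds to block cAMP breakdown; potency is the fitted concentration of half-maximal effect; nearly all actives have a fitted effect of over 60% in size; about a fifth of the inactives were tested at one dose only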
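Cells in DMEM/10% FBS with G418 were pretreated with compounds in DMSO plus […] (300 uM stock) for 30 min at 37C. cAMP was measured by HTRF (cAMP-d2 plus anti-cAMP antibody-K) after 30 min at room temperature.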
gsp antagonist = qHTS for Antagonists of gsp, the Etiologic Mutation Responsible for Fibrous Dysplasia/McCune-Albright Syndrome: qHTS; AID 624288, 2012; 340,000 compounds, 0.4% hits; Potency, µM (highest dose often 76.9 µM), inactives show at the top dose activity change, negative = inhibition, usual class: inhibitors; gsp-mutant cells, cAMP HTRF, 30 min; control for the full effect not named in the record; active = falling curve of any shape with a large fitted effect; inconclusive = falling curve, mostly with a smaller effect; inactive = flat or rising curve; cell line not stated here;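 note: intracellular cAMP measured with PDE inhibitor Ro 20-1724 present during compound exposure; potency is the fitted concentration of half-maximal effect; % is set by controls: 0 for no effect and ±100 for the full control effect; nearly all actives have a fitted effect of over 65% in size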
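Cells, 2000/well, grown 16–24 h in DMEM 10% FBS with 0.5 mg/ml G418, then compounds plus […] (300 uM addition stock), 30 min at 37C. cAMP read by HTRF (cAMP-d2 and anti-cAMP antibody-K in lysis buffer) after 30 min RT.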
D2 PAM = Beta-Arrestin HTS for Positive Allosteric Modulators of the Human D2 Dopamine Receptor: Potentiators. potentiation, % (no concentration beside the values). DiscoveRx D2 beta-arrestin cells, luminescence, 90 min; 100% = 57 uM dopamine signal. 360,000 compounds, 0.23% hits. AID 624464, 2012; active = potentiation of 50% or more; inconclusive = 30% to 50%; inactive = 30% or less;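 note: compound concentration not given in the record; tested on top of an EC20 dose of dopamine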
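PathHunter D2 cells, attached overnight at 37 deg C, received compound in DMSO plus dopamine at EC20 (50 nM final) for 90 min at 37 deg C. Beta-arrestin recruitment was read as luminescence after 1 h with detection reagent at ambient temperature.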
D2 ag = Beta-Arrestin HTS for Positive Allosteric Modulators of the Human D2 Dopamine Receptor: Agonists. D(2) dopamine receptor (Homo sapiens), P14416. DiscoveRx PathHunter D2 beta-arrestin, luminescence, 90 min; 100% = 57 uM dopamine signal. activation, % (no concentration beside the values). 360,000 compounds, 0.084% hits. AID 624465, 2012; in the data active = activation above about 40%; inconclusive = about 15% to 40%; inactive = below about 15%; note: compound concentration not given in the record; the text of the record calls up to 30% inactive
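DiscoveRx PathHunter D2 beta-arrestin cells (2,100/well) attached overnight, then compound-stimulated 90 min at 37 C in HBSS/10 mM HEPES/0.1% Tween-20 buffer; beta-galactosidase complementation read by luminescence after 1 h at ambient temperature. Dopamine 57 uM final (EC100) as control.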
CtBP-E1A inh = qHTS Assay for Inhibitors of the CtBP/E1A Interaction | activity change, % (concentration not given with the values) | AlphaScreen GST-E1A/His-CtBP binding, 1536-well; hits give low values; control for the full effect not named in the record | AID 651724, 2012 | 340,000 compounds, 0.49% hits | CtBP / adenovirus E1A interaction (AlphaScreen); in the data active means activity change below about -65%; inconclusive means about -30% to -65%; inactive means above about -30%; note: % is set by controls: 0 for no effect and ±100 for the full control effect
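GST-E1A and His-tagged CtBP (125 nM each as 5X stock) were preincubated with pin-transferred compound for 2 h at 37 °C in the dark, then glutathione donor and nickel acceptor beads were added for 1 h before AlphaScreen reading.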
Six1-Eya2 inh = qHTS Assay for Inhibitors of the Six1/Eya2 Interaction. Homeobox protein SIX1 (Homo sapiens) + Protein phosphatase EYA2 (Homo sapiens), …. AlphaScreen GST-Six1/His-Eya2 binding, biochemical; hits give low values; control for the full effect not named in the record. activity change, % (concentration not given with the values). 360,000 compounds, 0.56% hits; in the data active = activity change below about -65%; inconclusive = about -30% to -65%; inactive = above about -30%; note: % is set by controls: 0 for no effect and ±100 for the full control effect
Target sequence (O00167 whole entry, looked up): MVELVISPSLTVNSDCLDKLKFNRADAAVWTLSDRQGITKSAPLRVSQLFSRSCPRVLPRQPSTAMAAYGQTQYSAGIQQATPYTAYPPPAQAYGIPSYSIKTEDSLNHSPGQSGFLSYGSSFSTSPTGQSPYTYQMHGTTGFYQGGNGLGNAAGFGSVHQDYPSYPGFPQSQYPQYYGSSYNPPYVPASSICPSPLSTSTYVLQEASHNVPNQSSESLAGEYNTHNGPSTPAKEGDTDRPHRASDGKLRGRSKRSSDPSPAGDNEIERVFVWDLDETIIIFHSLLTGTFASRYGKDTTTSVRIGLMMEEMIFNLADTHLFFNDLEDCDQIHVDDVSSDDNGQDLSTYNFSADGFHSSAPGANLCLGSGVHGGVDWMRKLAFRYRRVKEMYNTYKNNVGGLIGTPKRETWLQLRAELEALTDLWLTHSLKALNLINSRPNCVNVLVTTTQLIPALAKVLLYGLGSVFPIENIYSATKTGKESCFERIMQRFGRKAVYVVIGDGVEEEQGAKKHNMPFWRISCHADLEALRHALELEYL
Target sequence (Q15475 whole entry, looked up): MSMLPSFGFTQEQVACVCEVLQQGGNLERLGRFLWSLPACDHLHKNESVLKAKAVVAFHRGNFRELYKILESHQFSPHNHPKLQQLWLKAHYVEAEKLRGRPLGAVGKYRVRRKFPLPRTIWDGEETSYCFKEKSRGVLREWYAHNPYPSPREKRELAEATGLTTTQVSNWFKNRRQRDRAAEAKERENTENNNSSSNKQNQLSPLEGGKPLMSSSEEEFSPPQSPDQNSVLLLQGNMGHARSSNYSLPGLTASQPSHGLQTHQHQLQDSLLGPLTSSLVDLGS
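Homogeneous AlphaScreen proximity assay pairing GST-Six1 with His-tagged Eya2 (added as 5X mix: 250 nM and 500 nM) in 50 mM Tris pH 8.0, 300 mM NaCl, 1 mM TCEP. Glutathione donor and nickel acceptor beads; 1 h, 37 °C, dark.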
* hit, by the source's call; u = inconclusive; x = no result given; [ ] = remark or other dose. Compounds as they come; about 1.4% have a hit in one of these screens.

SMILES	gsp ag	gsp antagonist	D2 PAM	D2 ag	CtBP-E1A inh	Six1-Eya2 inh
Fc1ccc(-n2nnc(-c3cccnc3)n2)cc1	-18%	-8%	-14	-4.8	0	9
Cc1ccc(CN2C3CCCC2CC(NC(=O)c2ccc(C)cc2)C3)cc1 (centres undefined)	0%	3%	-20	2.7	x	5
Cc1ccccc1Nc1nc(N)nc(CSc2nc3ccccc3c(=O)n2C)n1	11%	u	3	1.7	-6	-11
OC1CCN(C(=S)Nc2ccc(Nc3ccccc3)cc2)CC1	16%	-3%	-1	3.0	2	-8
Cn1c(CCNC(=O)c2cccs2)nnc1SCC(=O)N1CCN(c2ccccc2)CC1	u	6%	-2	1.7	-2	-1
COc1ccccc1CNC(=O)COC(=O)c1cc(C)oc1C	-6%	1%	-9	1.3	-13	1
O=[N+]([O-])c1ccccc1/C=N/n1c(-c2ccccc2)n[nH]c1=S	u	-1%	-2	3.2	-8	-6
O=C(NCCCN1CCOCC1)c1onc(CSc2ccccc2)c1C(=O)NCCCN1CCOCC1	x	5%	-50	-3.4	-3	5
C/C(=N\NC(=S)NC1CCCCC1)c1ccccc1	4%	-8%	-44	11	-19	-26
O=S(=O)(NC1=NCCCCC1)c1ccc2ccccc2c1	3%	-7%	10	0.9	4	16
Cc1ccc(S(=O)(=O)CC(=O)Nc2c(C)n(C)n(-c3ccccc3)c2=O)cc1	2%[15.4 µM]	1%	-19	-3.1	-13	2
CCOC(=O)/C(C#N)=C1\CCCN1CC(N)=S	-14%[15.4 µM]	-10%	-5	-2.3	7	1
CCOC(=O)c1sc2nc(C)[nH]c(=S)c2c1C	13µM*	3%	-10	-3.9	2	-4
COc1cc(C)ccc1S(=O)(=O)NC(=O)C1(C)CCN1C(=O)c1ccc(C2CCCCC2)cc1 (centres undefined)	x	x	-8	-5.5	6	1
CCn1c(Cc2c(C)[nH]c3ccccc23)nnc1SCC(=O)NCc1ccccc1	-32%[inhibitor]	-16%	-11	0.3	4	-1
O=C(Cn1cc([N+](=O)[O-])cn1)NCc1cc2ccccc2[nH]1	3%	-2%	-7	-0.5	3	-2
CC/C(=N\NC(=O)CSCc1ccccc1Br)c1ccc2c(c1)OCCO2	4%	-8%	-5	-0.4	0	0
CC1CCCC(NC(=O)CN2C(=O)NC(Cc3c[nH]c4ccccc34)C2=O)C1C (centres undefined)	12%	7%	-12	2.2	0	-1
COc1cc(/C=C/c2cc[n+](C)cc2)ccc1OCC(=O)Nc1ccccc1	6%[15.4 µM]	-1%	-2	-2.9	6	-1
O=C(O)C1(S(=O)(=O)CCC(F)=C(F)F)CC1	3%[15.4 µM]	7%	-6	-1.4	22	7
CCOC(=O)C1CCN(c2ccc(C(N)=O)cc2[N+](=O)[O-])CC1	22%	-5%	-8	-0.7	-5	2
O=Cc1cccn1-c1sc2c(c1C(=O)O)CCCC2	17%	7%	3	1.9	1	3
Cc1ccc(NCC(=O)N/N=C\c2cccc(O)c2)cc1	u	-1%	-4	-1.8	0	-6
COc1cc2c(c(NC(C)=O)c1)N(C(C)=O)CCC2	-4%[15.4 µM]	0%	-20	0.8	14	0
Cc1cc(=O)[nH]c(=S)n1-c1ccccc1	19%	5%	-9	-1.5	9	5
O=C(Cn1nnc(-c2ccccc2Cl)n1)Nc1cccc(S(=O)(=O)N2CCCC2)c1	-14%	-21%	-14	4.8	-5	-19
CC(NC(=O)c1cccs1)c1ccc(Cl)cc1 (centres undefined)	10%	-1%	-2	-1.7	-3	10
O=C(NNC(=O)c1cccc2ccccc12)c1ccc2c(c1)OCO2	6%[15.4 µM]	10%	-9	-1.7	0	1
CCCCCc1ccc(CC(=O)O)cc1	-5%	-1%	-16	-5.9	2	0
Cc1cc(C)cc(OCC(=O)OCC(=O)c2cc(C)n(C3CC3)c2C)c1	-2%	-3%	18	-1.3	-2	-1
CCOC(=O)c1cnc2ccc(OC)cc2c1Nc1ccc(N2CCN(C)CC2)cc1	1%[15.4 µM]	-6%	-5	-2.0	u	-15
Cc1cc(Oc2ccc(N)cn2)cc(C)c1Cl	-3%	2%	-1	0.5	-17	-12
Cn1c(CNC(=O)Cc2ccc3c(c2)OCO3)nnc1SCc1ccccc1	-17%	10%	-12	-1.8	7	5
COc1cccc2[nH]c3c(N4CCCCC4)ncnc3c12	21%	-12%	-24	-3.0	0	-2
CN(CC(=O)Nc1ccccc1C(=O)NC1CC1)Cc1ccc(N(C)C)cc1	1%	1%	-1	0.6	-8	-6
COC(=O)c1c(N)sc(C(=O)N2CCOCC2)c1C	-24%	-1%	-5	-1.7	0	7
CC(C)(Oc1ccc(Cl)cc1)C(=O)Nc1c2c(nn1C(C)(C)C)CS(=O)(=O)C2	-31%[inhibitor]	18%	3	4.6	4	4
COc1ccc(Cc2c(C3CCCCC3)nc3ccc(Cl)cn23)c(C)c1	x	x	-3	-3.9	10	2
O=C(Nc1cccc(Cl)c1)c1ccccc1NC(=O)C1CCCCC1C(=O)O (centres undefined)	-3%[15.4 µM]	5%	-13	-2.5	5	-5
O=C(O)c1cc(-c2ccc3ccccc3n2)nc2ccccc12	-7%[15.4 µM]	-22%	-2	-2.4	-1	-6

In another format: 2 of the compounds above.
| mol | gsp ag | gsp antagonist | D2 PAM | D2 ag | CtBP-E1A inh | Six1-Eya2 inh |
| --- | --- | --- | --- | --- | --- | --- |
| O=C(Nc1cccc(Cl)c1)c1ccccc1NC(=O)C1CCCCC1C(=O)O (centres undefined) | -3%[15.4 µM] | 5% | -13 | -2.5 | 5 | -5 |
| O=C(O)c1cc(-c2ccc3ccccc3n2)nc2ccccc12 | -7%[15.4 µM] | -22% | -2 | -2.4 | -1 | -6 |

(continued)
SMILES	gsp ag	gsp antagonist	D2 PAM	D2 ag	CtBP-E1A inh	Six1-Eya2 inh
CC(C)c1cccc(C(C)C)c1OC(=O)[C@H]1OC(C(C)(C)C)=C[C@@H]1c1ccccc1	x	2%	-9	-2.3	-13	8
Cc1[nH]c(C)c(S(=O)(=O)N2CCCCC2)c1C(=O)N1CCCC1	12%	-4%	-4	2.3	4	1
CC(C)C(=O)NC(c1ccccc1Cl)c1c(O)ccc2ccccc12 (centres undefined)	12%	-8%	0	-2.6	-17	-6
CCC(=O)N1CCc2cc(Br)cc(S(=O)(=O)N3CCCC(C(=O)NC(C)(C)C)C3)c21 (centres undefined)	u	-14%	-2	4.2	-3	-11
Cc1ccc(S(=O)(=O)N(C)C)cc1NC(=O)c1c(-c2c(F)cccc2Cl)noc1C	-5%[15.4 µM]	3%	-7	-3.8	6	-1
CC(=O)Nc1ccc(Nc2nnc(-c3ccc(C)c(S(=O)(=O)NCCO)c3)c3ccccc23)cc1	4%	11%	-4	-0.8	-26	-16
O=C(OCC(=O)N1CCc2ccccc2C1)c1cccc([N+](=O)[O-])c1	-93%[inhibitor]	-7%	-8	3.7	x	7
CCOC(=O)C1(Cc2ccccc2)C(=O)N(CCCN(C)C)c2ccccc21 (centres undefined)	8%[15.4 µM]	0%	-19	-2.4	1	6
Cc1cc(C)c(S(=O)(=O)Nc2ccc(O)c(Sc3ncn[nH]3)c2)cc1C	-61%[inhibitor]	-6%	10	u	-2	-10
ONC(=Nc1ccc(Cl)cc1)c1ccc(Cl)cc1	1%	1%	1	-0.4	9	4

gsp ag, hit marks shown above
SMILES	gsp ag	gsp antagonist	D2 PAM	D2 ag	CtBP-E1A inh	Six1-Eya2 inh
CCOC(=O)c1sc2nc(C)[nH]c(=S)c2c1C	13µM*	3%	-10	-3.9	2	-4

Later entries:
SMILES	gsp ag	gsp antagonist	D2 PAM	D2 ag	CtBP-E1A inh	Six1-Eya2 inh
Cc1cc(-c2ccc(C(C)C)c(S(=O)(=O)N3CCOc4ccccc43)c2)on1	13%	-6%	-16	-4.2	-9	-4
CC[C@@H]1C(c2ccc(F)cc2)=NN(c2ccccc2)[C@H]1C(=O)N1CCOC1=O	x	u	1	-1.5	27	23
CC(=O)Nc1ccc(OCCOc2ccc(/C=C3\C(=N)N4N=C(C(C)C)SC4=NC3=O)cc2)cc1	-21%	-11%	-4	8.3	x	-9
O=C(CCCC(=O)N(CC(=O)NC1CCCCC1)Cc1ccccc1)Nc1ccccn1	13%	6%	1	-3.6	8	2
CCNc1nc(C)c(CN(C(C)=O)c2ccccc2)nc1C#N	0%[15.4 µM]	-3%	-4	-5.0	0	3
Cc1cccc(N(CC(=O)NC(C)C)C(=O)c2ccc(N3CCCC3)nc2)c1	6%[15.4 µM]	0%	-5	-1.9	-1	11
Cc1cc(C)nc(N/N=C/C2=C(O)CC(c3ccc(F)cc3)CC2=O)n1 (centres undefined)	-19%	-12%	-30	-5.6	x	u
CN1OC[C@@H]2CN(C(=O)CCc3ccccc3)[C@H](c3ccccc3Br)C[C@@H]21	x	x	-9	-3.7	1	-4
CCOc1ccc(CN(C)C(=O)CCN2C(=O)c3ccccc3C2=O)cc1OC	0%	-1%	-1	2.4	8	-4
CCCNC(=O)C(Cc1cccc(C#N)c1)NC(=O)c1ccc(C#N)cc1 (centres undefined)	x	-3%	-55	-3.3	0	7
COc1ccc(N2CCN(C(=O)CCCn3c(=S)[nH]c4cc5c(cc4c3=O)OCO5)CC2)cc1	u	-11%	-8	-2.6	-5	-20
COc1cc(/C=N/NC(=O)COc2ccc(-n3cnnn3)cc2)ccc1OCC(N)=O	9%	18%	-5	-0.3	3	-7
CCOC(=O)Cc1csc(SCC(=O)Nc2cc(C)ccc2OC)n1	16%[15.4 µM]	-55%	-51	0.8	4	10
COc1ccc(-c2ccc([C@H]3[C@@H]4C=CCC[C@@]4(C)C(=O)N3Cc3ccccc3)c(F)c2)cc1OC	3%	-13%	-10	-0.7	-17	-16
Cc1c(Cl)cccc1NC(=O)Cn1nnc(C(=O)NCc2cccs2)c1N	0%[15.4 µM]	14%	-10	-0.5	3	7

A few values from the entries so far.
C/C(=N\NC(=S)NC1CCCCC1)c1ccccc1 in Six1-Eya2 inh reads -26
CCOC(=O)Cc1csc(SCC(=O)Nc2cc(C)ccc2OC)n1 in gsp ag reads 16%[15.4 µM]
CC(NC(=O)c1cccs1)c1ccc(Cl)cc1 (centres undefined) in D2 PAM reads -2
Cc1cc(-c2ccc(C(C)C)c(S(=O)(=O)N3CCOc4ccccc43)c2)on1 in D2 ag reads -4.2
COC(=O)c1c(N)sc(C(=O)N2CCOCC2)c1C in CtBP-E1A inh reads 0
Cc1[nH]c(C)c(S(=O)(=O)N2CCCCC2)c1C(=O)N1CCCC1 in Six1-Eya2 inh reads 1
